INS promoter inh: inhibitors of insulin promoter-driven GFP, primary screen, imaging, TRM-6 cells (human fetal islet line), eGFP reporter, cell count; reporter expression induced with tamoxifen; inhibition, % at 2 µM; 130,000 compounds, 0.9% hits; AID 1273, 2008;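 active = inhibition above the mean plus 3 SD, with well images judged a real hit on visual review, cut at about 60% in these data, passing the limit was not always enough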
RGS16-Gao: modulators of RGS16 binding to Galphao, primary screen, biochemical, human proteins, multiplexed bead flow cytometry. 220,000 compounds, 0.38% hits. binding response (% of control), % at 10 µM. Regulator of G-protein signaling 16 (Homo sapiens) + Guanine nucleotide-binding protein …. AID 1441, 2008. bead-based flow cytometry RGS16-Galphao binding, fluorescence; actives lie on both sides;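 active = below 25% or above 175%, edge rows of some plates excepted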;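 note: Galphao activated by GDP with aluminum fluoride before binding; 100% = wells without compound and 0% = beads without RGS; some results beyond the cut were filed as inactive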
Target sequence (O15492 whole entry, looked up): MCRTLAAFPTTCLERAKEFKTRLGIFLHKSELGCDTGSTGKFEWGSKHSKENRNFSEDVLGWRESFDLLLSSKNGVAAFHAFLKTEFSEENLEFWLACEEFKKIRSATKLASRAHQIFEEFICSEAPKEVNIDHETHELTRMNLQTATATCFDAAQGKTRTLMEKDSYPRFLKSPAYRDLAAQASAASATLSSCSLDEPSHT
Target sequence (P09471 whole entry, looked up): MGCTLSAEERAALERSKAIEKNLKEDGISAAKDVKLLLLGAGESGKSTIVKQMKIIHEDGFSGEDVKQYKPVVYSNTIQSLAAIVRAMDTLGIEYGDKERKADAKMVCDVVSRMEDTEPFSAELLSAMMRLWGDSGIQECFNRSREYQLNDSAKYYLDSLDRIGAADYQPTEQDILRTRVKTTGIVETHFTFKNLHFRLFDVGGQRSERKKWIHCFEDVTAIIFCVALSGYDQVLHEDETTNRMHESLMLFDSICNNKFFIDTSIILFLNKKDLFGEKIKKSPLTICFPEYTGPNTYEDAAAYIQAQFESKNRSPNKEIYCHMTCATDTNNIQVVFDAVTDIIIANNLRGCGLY
HSV replic up: enhancers of HSV replication in host cells, fold increase, host cell viability; HSV replication augmentation in cells; maximum fold increase; 220,000 compounds, 0.005% hits; AID 1956, 2009;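 active = peak rise of 1.5-fold or more in the series; tested in PC3 cells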;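 note: first round at 10 µM; read as green reporter fluorescence; hits show the peak of a series up to 25 µM; 1 = signal of infected wells without compound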
PKD1 inh: inhibitors of human PKD1 kinase, biochemical, fluorescence polarization; PKD1 kinase fluorescence polarization assay; inhibition, %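 (about 10 µM by stock and volumes)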; 200,000 compounds, 0.056% hits;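 active = inhibition of 50% or more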;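 note: controls were vehicle for no effect and a reference inhibitor for full effect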
GALR2 ag: GALR2 receptor agonists, primary screen, cell-based. Galanin receptor type 2 (Homo sapiens), O43603. GALR2-expressing cells, agonist activation read-out. activation, %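 (tested at 5 µM)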. 140,000 compounds, 0.48% hits. AID 803, 2007;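 active = above mean plus 3 SD of all compounds, about 5% in these data, not always enough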;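 note: 0% = vehicle buffer wells and 100% = reference agonist at full effect; tested in CHO reporter cells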
Target sequence (O43603 whole entry, looked up): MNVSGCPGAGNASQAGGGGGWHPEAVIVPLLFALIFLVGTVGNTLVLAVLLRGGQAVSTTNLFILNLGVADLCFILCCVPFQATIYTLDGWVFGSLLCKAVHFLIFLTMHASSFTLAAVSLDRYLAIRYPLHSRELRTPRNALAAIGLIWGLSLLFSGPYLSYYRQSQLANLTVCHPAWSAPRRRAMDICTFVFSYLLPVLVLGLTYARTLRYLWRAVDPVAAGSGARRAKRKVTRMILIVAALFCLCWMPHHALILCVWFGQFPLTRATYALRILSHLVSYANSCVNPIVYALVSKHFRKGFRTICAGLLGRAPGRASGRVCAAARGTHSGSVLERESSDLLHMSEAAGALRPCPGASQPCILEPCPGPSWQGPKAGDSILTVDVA
INS promoter inh cell count: also measured in INS promoter inh; calls as there; normalized cell count, %; measured here: cell count, toxicity; reference of the scale not given here;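 cells exposed to compound for 48 h; stained nuclei by imaging scaled within each plate; lower means fewer cells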
HSV replic up primary fold: second read-out of HSV replic up, no call of its own (marks repeat the call); fold increase; compound at 10 µM; measured here: primary screen fold increase 10 uM; tested in PC3 cells;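 GFP signal in the first replicate; 1 = infected wells without compound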
Active calls of the source: *; i = inactive; . = not tested or not shown.

smiles	INS promoter inh	INS promoter inh cell count	RGS16-Gao	HSV replic up	HSV replic up primary fold	PKD1 inh	GALR2 ag
COC(=O)c1ccccc1NC(=O)Nc1ccc(C(=O)N2CCCC2)cc1	38	122	103	i	0.79	-2	-2.3
CCc1nc(SCC(=O)c2ccccc2)c2ccccc2n1	36	146	100	i	0.96	3	.
CCOC(=O)c1sc(NCc2ccco2)c(-c2nc3ccccc3s2)c1N	-6	122	103	i	0.95	0	-1.7
CCOC(=O)CSc1nc(-c2ccncc2)ccc1C#N	.	.	99	i	0.93	3	-2.6
COC(=O)c1ccc(OCC(=O)c2ccccc2)cc1	7	162	91	i	1.2	2	-0.5
CCCCOC(=O)Cn1c(=O)n(CC(=O)OCCCC)c2ccccc21	9	127	130	i	1.1	0	-3.0
O=C(NNC(=O)C1CCCN(c2ncccn2)C1)c1ccncc1 (stereo unspecified)	.	.	102	i	0.94	-7	.
OCCN1CCN(c2cc(C(F)(F)F)nc3c(F)cccc23)CC1	.	.	-6.6*	i	0.98	.	.
Cc1ccc(OCC(=O)N(Cc2ccccc2)C2CCS(=O)(=O)C2)c([N+](=O)[O-])n1 (stereo unspecified)	.	.	118	i	0.93	-9	-1.5
COc1ccc(Nc2nc(NCCCN3CCOCC3)nc(N)c2[N+](=O)[O-])cc1	.	.	101	i	1	.	.
COc1ccc(-c2cc(C)nc3c(-c4ccccc4)cnn23)cc1	.	.	97	i	0.98	-5	.
Cc1ccc2nc(C3CCCN(C(=S)Nc4ccccc4C)C3)[nH]c2c1 (stereo unspecified)	-30	118	87	i	0.73	-6	-2.5
Cc1occc1-c1nnc(SCC(=O)NCc2cccs2)n1-c1ccc(F)cc1	.	.	78	i	0.96	-6	1.4
CCCNS(=O)(=O)c1ccc(OCC(=O)N2CCCC2)cc1	.	.	103	i	0.99	-3	.
CC(C)C(=O)Nc1nnc(-c2ccccc2)o1	.	.	106	i	0.77	-2	-4.0
COC(=O)c1c(N2C(=O)[C@H]3[C@@H](C2=O)[C@]2(C(=O)Nc4c2ccc(C)c4C)N2CCC[C@@H]32)sc(C)c1C	.	.	107	i	1	3	-0.5
Cc1ccc(CNC(=O)c2cncc(Br)c2)cc1	.	.	97	i	1	2	.
CC(C)=CCN1CCN(Cc2ccc3nsnc3c2)CC1CCO (stereo unspecified)	.	.	100	i	1	-9	.
OCCNc1nc(N2CCCC2)nc(N2CCCC2)n1	57	128	118	i	1	4	-2.8
c1ccc(-n2ncc3c(N4CCN(c5ccccn5)CC4)nc(N4CCCCCC4)nc32)cc1	.	.	90	i	1.1	-8	-1.5
CSC(=NC#N)N1CCN(c2ccc(Cl)cc2)CC1	49	153	101	i	1	-6	-2.3
CC(C)c1ccc(NC(=S)NNc2ccc(Cl)c(C(=O)O)c2)cc1	.	.	92	i	0.99	.	.
Cc1nc2ccc(NC(=O)c3cc(S(=O)(=O)N(C)c4ccccc4)ccc3Cl)cc2s1	31	124	104	.	.	-12	4.4
COc1ccccc1N1N=C(c2cccs2)CC1c1ccccc1 (stereo unspecified)	-30	83	59	i	1	-2	13*
CC(=O)N(C)c1ccc(C(O)(C(F)(F)F)C(F)(F)F)cc1	.	.	98	i	0.97	1	.

Reformatted: results already given.
Below each compound – INS promoter inh | INS promoter inh cell count | RGS16-Gao | HSV replic up | HSV replic up primary fold | PKD1 inh | GALR2 ag
Cc1nc2ccc(NC(=O)c3cc(S(=O)(=O)N(C)c4ccccc4)ccc3Cl)cc2s1
→ 31 | 124 | 104 | . | . | -12 | 4.4
CC(C)=CCN1CCN(Cc2ccc3nsnc3c2)CC1CCO (stereo unspecified)
→ . | . | 100 | i | 1 | -9 | .
CCCNS(=O)(=O)c1ccc(OCC(=O)N2CCCC2)cc1
→ . | . | 103 | i | 0.99 | -3 | .

Going on with the list:
smiles	INS promoter inh	INS promoter inh cell count	RGS16-Gao	HSV replic up	HSV replic up primary fold	PKD1 inh	GALR2 ag
O=C(C1CCCO1)N1CCN(C(=S)Nc2ccccc2)CC1 (stereo unspecified)	37	59	68	i	0.94	-8	-0.8
CCOc1ccc(-c2cn(S(=O)(=O)c3cccc4nsnc34)nc2N)cc1	-7	49	131	i	0.87	-6	-1.4
O=c1[nH]ncc2c3ccccc3n(Cc3ccc(F)cc3)c12	0	142	103	i	0.88	-11	-0.5
COC(=O)c1cc(OC)c(OC)cc1NC(=S)N1CCN(c2ccccn2)CC1	.	.	102	i	0.91	1	.
O=C(N/N=C/c1cccnc1)C(=O)N1CCCCCC1	.	.	103	i	1	.	.
C/C(N)=C(/C#N)C(=O)CSc1nc2cc(Cl)ccc2c(=O)n1-c1ccc(C)cc1	-45	51	110	i	1	-8	-0.1
CCCS(=O)(=O)c1c(S(=O)(=O)CCC)c2cc(-c3ccncc3)ccn2c1C(=O)OC	-379	76	106	i	0.86	4	.
CCSc1ccccc1C(=O)NCc1ccc(OC)cc1	.	.	98	i	1.1	-10	-2.0
C=CCOc1ccc(CNn2c(C)n[nH]c2=S)cc1OC	4	75	100	i	1	-13	0.8
CC(C)CCNC(=O)CN(C(=O)CCC(=O)Nc1ccccn1)c1ccc(F)c(Cl)c1	.	.	101	i	1	2	.
CC12CCC(C(=O)NC3CCCCC3)([C@H](Br)C1=O)C2(C)C (stereo partly specified)	.	.	94	i	0.9	.	.
CC1(C)NC(=O)N(CC(O)Cn2c3ccccc3c3ccccc32)C1=O (stereo unspecified)	-142	94	103	i	0.94	2	.
Cc1ccc(-c2nnc3ccc(SCC(=O)Nc4cc(C)on4)nn23)cc1	.	.	102	i	0.91	-4	-0.6
Cn1c(SCC(=O)c2c(N)n(C)c(=O)n(C)c2=O)nnc1-c1ccccc1F	40	62	120	i	1	5	.
CCOc1ccc(CN2C(=O)c3ccccc3C2C(=O)NCC2CCCO2)cc1 (stereo unspecified)	-16	81	105	i	0.99	-2	.
COc1ccccc1OCC(=O)Nc1ccc(S(=O)(=O)Nc2cc(C)nc(C)n2)cc1	.	.	94	i	0.85	-2	-1.7
COc1ccc(/C=N/NC(=O)c2[nH]c(C)c(C(=O)N/N=C/c3ccc(OC)cc3)c2C)cc1	19	68	109	i	0.99	2	-1.7
N#Cc1c(SCC(=O)N2CCCCC2)nsc1SCC(=O)N1CCCCC1	-73	105	101	i	0.96	-13	0.3
COc1ccc(OC)c(S(=O)(=O)N(C)CC(=O)N2CCc3ccccc3C2)c1	-52	180	123	i	0.97	1	-1.5
O=C(N/N=C/c1ccc2c(c1)OCO2)C(=O)Nc1ccccc1	.	.	99	i	0.95	.	.
N#CCCn1c2ccccc2c2nc3ccccc3nc21	.	.	97	i	0.96	12	2.6
Cc1ccc(CNC(=O)CSc2nc(C)cc(C)c2C#N)cc1	.	.	103	i	0.75	2	0.1
COc1ccccc1-c1n[nH]c(=S)n1Cc1ccco1	.	.	97	i	0.84	-9	.
COC(=O)c1ccc(C(=O)OC)c(NC(=O)CSc2nnc(-c3ccccc3Cl)o2)c1	8	127	.	i	0.94	-2	-0.8
O=C(O)CNC(=O)/C(=C/c1cccc([N+](=O)[O-])c1)NC(=O)c1ccco1	.	.	104	i	0.99	6	-1.1

Taken from above:
Entry for O=C(N/N=C/c1cccnc1)C(=O)N1CCCCCC1 in RGS16-Gao: 103
Entry for COC(=O)c1cc(OC)c(OC)cc1NC(=S)N1CCN(c2ccccn2)CC1 in HSV replic up primary fold: 0.91
Entry for O=c1[nH]ncc2c3ccccc3n(Cc3ccc(F)cc3)c12 in HSV replic up primary fold: 0.88

Next section:
smiles	INS promoter inh	INS promoter inh cell count	RGS16-Gao	HSV replic up	HSV replic up primary fold	PKD1 inh	GALR2 ag
O=C(OCCCN1CCCC1)C1(c2ccccc2)CCCC1	-167	106	109	i	0.89	-6	-1.1
COc1cc(C)c(C(C)C)cc1S(=O)(=O)NCCCn1ccnc1	.	.	101	i	1	10	0.0
O=C(COC(=O)c1cc(Br)ccc1Cl)NC1CC1	.	.	94	i	0.96	-4	-1.2
COCC(C)NC(=O)c1ccccc1OC(C)=O (stereo unspecified)	-500	53	103	i	0.93	-10	-1.4
CC1CCCN(S(=O)(=O)c2cc(Cl)ccc2Cl)C1 (stereo unspecified)	-61	90	99	i	1.1	-3	-2.3
C=CCn1c(-c2ccccc2[N+](=O)[O-])n[nH]c1=S	.	.	96	i	0.96	3	.
CCn1c(SCc2cccc(C(=O)O)c2)nnc1-c1ccccc1	12	191	98	i	1	-2	0.0
N#CCCN(C(=O)Nc1ccc(Cl)c(Cl)c1)c1ccccc1	14	96	101	i	0.94	2	-1.3
Cc1cc(C)n(-c2ccc(C(=O)Nc3cccnc3)cc2)n1	.	.	97	i	0.96	.	.
Cc1ccc2[nH]c(C(=O)O)c(NC(=O)[C@@H]3C[C@@H]3c3ccccc3)c2c1	.	.	100	i	1.4	.	.
Cc1ccc(S(=O)(=O)N2CCN(C(=O)c3cccs3)CC2)cc1	.	.	104	i	0.84	-9	.
CCOc1ccc(NC(=O)CN2CCN(CC(=O)Nc3ccc(F)c(F)c3)CC2)cc1	-80	128	87	i	1	-3	-1.7
COc1ccc(-n2c(SC(CN3CCCCC3)CN3CCCC3=O)nc3ccccc3c2=O)cc1 (stereo unspecified)	-13	139	100	i	0.99	12	0.1
CCC(=O)N1CCN(c2nc(-c3ccc(Cl)cc3)cs2)CC1	-267	68	66	i	0.99	1	-0.2
C=CCn1c(-c2cccc(OC)c2)nc2nc3ccccc3nc21	-60	128	106	i	0.82	-3	-0.3
CCOc1ccc2nc(NC(=O)C3CCCN(S(=O)(=O)c4cccc5nonc45)C3)sc2c1 (stereo unspecified)	4	121	94	i	0.86	-1	-2.1
CCOc1ccccc1NC(=O)N1CCCC1C(=O)Nc1nnc(CC)s1 (stereo unspecified)	6	90	100	i	1.1	-9	0.5
COc1cccc(NC2=NCC(=O)N2Cc2cccs2)c1	.	.	114	.	.	6	-3.1
COc1ccc(N(C(C)C(=O)NCc2ccco2)S(C)(=O)=O)cc1 (stereo unspecified)	.	.	94	i	1.1	-1	-1.7
CCn1c(SCC(=O)NC2CCCCC2)nc2c(c1=O)SC(C)C2 (stereo unspecified)	36	87	102	.	.	2	0.4
COc1ccc(/C=N/NC(=O)CC(=O)N/N=C/c2ccc(OC)cc2)cc1	55	56	158	i	0.89	-2	.
CCn1nc(NC(=O)c2ccccn2)c2cc3cccc(C)c3nc21	.	.	94	i	0.99	-11	6.2
COc1ccc(Cn2c(/C=C/c3ccccc3)nc3ccccc32)cc1	.	.	103	i	0.96	4	-0.8
CC(C)NC(=O)CC1C(=O)N(Cc2ccccc2)C(C)c2nc3ccccc3n21 (stereo unspecified)	-43	147	99	i	0.86	-4	.
CCn1ncc(C2C(C(=O)Nc3ccc(C)cn3)=C(C)NC3=C2C(=O)CCC3)c1C (stereo unspecified)	3	125	98	i	1	-4	-1.3
Cc1ccc(S(=O)(=O)N(CCC#N)CCN2CCCC2)cc1	-16	101	98	i	1	6	-1.8
O=S1(=O)CC(O)C(NCc2cccnc2)C1 (stereo unspecified)	.	.	116	i	0.83	-5	-1.3

Screens deposited in PubChem BioAssay by several laboratories.
